# Screens from PubChem.
# Bead autofluor – flagged as autofluorescent in microsphere protease counterscreen | compound autofluorescence counterscreen, microsphere flow cytometry; active compounds read high | AID 624483 | fluorescence intensity (concentration not given with the values) | 3.1% of 360,000 active;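 active = at least 3 SD above the mean of all compounds, about 16000 in these data; inconclusive = too few beads counted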;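 also: 100 nL of 1 mM stock went into each well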
# BJeLR lethal – kills HRASV12-expressing BJeLR cells; BJeLR (HRASV12) viability, CellTiter-Glo ATP luminescence, 48 h; reference of the scale not given here; inhibition, % (concentration not given with the values); 0.17% of 300,000 active;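 active = replicate mean above 50%; inconclusive = above 50% but judged a plate artefact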;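 also: 50 nL library stock added to about 25 µL; numbers are from one replicate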
# Sa RN4220 lethal – kills Staphylococcus aureus RN4220; S. aureus RN4220 growth, OD600, 16 h; inhibition, % (concentration not given with the values); 0.33% of 330,000 active;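 active = z-score of -3 or lower and OD600 up to 0.18 on both plates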;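 also: plate controls were untreated cells for no effect and reference antibiotic for full effect; stock transfer was 100 nL into about 80 µL; one replicate is shown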
# PrP 5UTR inh – inhibition of PrP 5' UTR reporter expression | 0.35% of 340,000 active | cell-based PrP 5' UTR mRNA reporter, plate reader | AID 488862 | inhibition, % (no concentration beside the values);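 active = every replicate at 50% or more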;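 also: 0 = median of the neutral control wells; tested in H4 reporter cells; numbers are from one replicate; inactives centre near -14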
# ugtP null kill – compounds lethal to S. aureus RN4220 ugtP deletion mutant. growth inhibition, % (concentration not given with the values). 0.54% of 330,000 active. OD600 growth, 16 h; some inactives read as strong as hits;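 active = z-score under -3 and OD600 up to 0.15 on both plates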;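 also: plate controls were untreated wells for no effect and antibiotic for full effect; wells of about 80 µL received 100 nL stock; the first replicate is given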
# Mtb hypoxia rep – reduces hypoxia-regulated biosensor signal in M. tuberculosis; fluorescence inhibition, % (test concentration not listed); 0.1% of 300,000 active; M. tuberculosis hypoxia-regulated fluorescent reporter, fluorescence;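 active = 35 to 45% if threefold the growth effect, above 45% if 1.5-fold the growth effect; inactive = the rest, general growth blockers included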;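 also: wells of about 50 µL received 100 nL stock; 0% = vehicle wells and 100% = reference inhibitor wells; whole bacteria with a GFP reporter of the hypoxia response; strong numbers were not always called active; many hits fall short of the cut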
# Mtb hypoxia rep growth – also measured in Mtb hypoxia rep; calls as there; growth inhibition, %; measured here: M. tuberculosis growth (absorbance);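 0% = vehicle and 100% = reference antibiotic; read after six days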
# * hit, by the source's call; ? = inconclusive; · = no result given; & = joins results of further samples.
# Sample of the layout (4 entries):
molecule,Bead autofluor,BJeLR lethal,Sa RN4220 lethal,PrP 5UTR inh,ugtP null kill,Mtb hypoxia rep,Mtb hypoxia rep growth
N#Cc1ccc(Oc2ccc(S(=O)(=O)N3CCOCC3)cn2)cc1,·,8,1.7,-12,4,0,1
CCc1ccc(NC(=O)Nc2cc(C(=O)O)ccc2N2CC3CC(C2)c2cccc(=O)n2C3)cc1 (stereo not drawn),5178,-9,0.3,-8,3,1,-4
CCn1nc(C)c(CNC(=O)c2cc(COc3ccc(F)cc3Cl)on2)c1C,4501,10,0.2,·,5,-3,2
Cn1cnc(S(=O)(=O)Nc2cc(C(F)(F)F)ccc2N2CCOCC2)c1,4540,0,2.1,-15,10,8,2

# All compounds of this part, repeating the preview:
molecule,Bead autofluor,BJeLR lethal,Sa RN4220 lethal,PrP 5UTR inh,ugtP null kill,Mtb hypoxia rep,Mtb hypoxia rep growth
N#Cc1ccc(Oc2ccc(S(=O)(=O)N3CCOCC3)cn2)cc1,·,8,1.7,-12,4,0,1
CCc1ccc(NC(=O)Nc2cc(C(=O)O)ccc2N2CC3CC(C2)c2cccc(=O)n2C3)cc1 (stereo not drawn),5178,-9,0.3,-8,3,1,-4
CCn1nc(C)c(CNC(=O)c2cc(COc3ccc(F)cc3Cl)on2)c1C,4501,10,0.2,·,5,-3,2
Cn1cnc(S(=O)(=O)Nc2cc(C(F)(F)F)ccc2N2CCOCC2)c1,4540,0,2.1,-15,10,8,2
CCn1cc([N+](=O)[O-])c(C(=O)N2CCCC2)n1,11081,1,3.1,2,2,3,5
CCCC(C(=O)OCC)P(=O)(c1ccccc1)c1ccccc1 (stereo not drawn),23167*,-8,3.9,-14,5,2,7
COc1ccc(Nc2nc(N)nc(CN(C)C3CCCCC3)n2)cc1,4416,-13,3.7,-7,2,1,2
COC(=O)c1c(C)[nH]c(C(=O)/C=C/c2ccccc2F)c1C,5319,-7,4.7,-109,4,7,2
CN1CCN(NS(=O)(=O)c2cccs2)CC1,8739,-1,3.6,-32,3,6,-4
CN(Cc1cnn(C)c1)Cc1nc(Cc2ccccc2Cl)no1,2588,1,-0.6,-9,-7,0,7
COc1ccccc1NCCC(=O)OCC(=O)Nc1ccc(Cl)cn1,4101,12,3.1,-2,3,·,·
O=C(O)C1=CC(c2csc3ccccc23)CC(OCCCCO)O1 (stereo not drawn),·,·,4.5&15,·,1&8,12&13,13&7
Cc1cccn2cc(-c3ccc(S(=O)(=O)N4CCCCC4)cc3)nc12,4319,2,1.6,-23,12,-2,5
Cc1ccc(/C=C/S(=O)(=O)NCCC(=O)NCc2ccc(F)cc2)cc1,8314,·,0.7,-2,-1,4,4
COc1ccc(CC(=O)NCc2ccccc2)cc1,3455,28,1.4,-28,4,15,18
CCN(CC)CC#CC(C)OCOCC#CCOC (stereo not drawn),8914,-1,23,-8,0,20,12
CCC(C)NC(=O)Cn1cnc2sc(C)c(S(=O)(=O)N3CCCCC3)c2c1=O (stereo not drawn),5260,4,-0.1,-22,1,-2,2
FC(F)Sc1ccc(NC(=S)NC2CCCC2)cc1,4419,-29,-4.3,-60,2,0,10
Cc1cc(N2CCN(c3nc(-c4ccccc4)cs3)CC2)c2ccccc2n1,4718,7,-22,-10,-7,-8,-2
CC(=O)NCc1nc2ccccc2n1C(C)C,5948,3,-1.0,-20,-2,-4,-1
CC(C)CN1CCN(Cc2ccc(F)cc2Cl)CC1CCO (stereo not drawn),5773,-8,3.5,-1,0,6,-2
N#Cc1ccc(C=NNC(=O)c2cccc(S(=O)(=O)N3CCOCC3)c2)cc1,·,·,-1.3,·,3,-1,1
Cc1nc(N(C)C)ncc1C(=O)O,2907,-5,-0.7,-19,-6,·,·
CN1CCN(S(=O)(=O)c2ccc(Sc3nnnn3-c3ccccc3)c([N+](=O)[O-])c2)CC1,2335,-1,5.2,1,1,17,24
Cc1nc2scc(-c3ccc(C(C)(C)C)cc3)c2c(=O)n1N,2572,-7,13,-35,14,9,0
O=c1[nH]c(-c2ccncc2)nc2ccccc12,3051,-3,6.9,-6,13,·,·
COc1ccc(Cc2nc3ccccc3n2CC(=O)N/N=C/c2ccccc2)cc1OC,2437,5,·,-8,·,·,·
CN1CCCN(C(=O)C2CCC(C(=O)N3CCCN(C)CC3)CC2)CC1 (stereo not drawn),4026,-9,1.5,-65,2,1,2
O=C(CCSCc1ccc(Cl)cc1)NCc1cccs1,3226,3,5.9,-15,5,-1,4
Cn1c(=O)[nH]c(=O)c2c1nc(SCC(N)=O)n2Cc1cccc(Br)c1,3994,6,0.2,-12,8,1,0
O=C(COc1ccccc1)N=C1SC2CS(=O)(=O)CC2N1c1ccc(F)cc1 (stereo not drawn),5507,0,-1.2,11,-5,-8,8
O=C(c1ccc2c(=O)n3c(nc2c1)CCCCC3)N1CCN(C(c2ccccc2)c2ccccc2)CC1,23040*,-8,1.7,-7,-2,-3,9
COc1ccc(-c2csc3ncnc(N4CCN(c5ccccc5O)CC4)c23)cc1,4651,-9,-2.3,-14,-8,0,-2
COc1cc(OC)cc(C(=O)Nc2cc(C)nn2-c2ccccc2)c1,3732,-7,1.2,-12,-1,-6,5
O=C(O)C1=CCCN(CCON=C(c2ccccc2)c2ccccc2)C1,6058,·,10,-13,1,13,2
CCOC(=O)Cn1cc(C=NN2C(=O)C3C4C=CC(C4)C3C2=O)c2ccccc21 (stereo not drawn),·,·,1.8,·,2,3,10
C=CCOc1ccc(/C(O)=C2/C(=O)C(=O)N(CCN3CCOCC3)C2c2ccc(C)cc2)cc1 (stereo not drawn),8476,-11,0.0,-30,-1,-3,7
COc1cc2c(c(OC)c1OC)C(=O)CC2,6043,5,5.9,-2,1,7,-4
CC(=O)Oc1ccc(OC(C)=O)c(SCCCCCN2CCOCC2)c1,23369*,-2,-2.2,-35,8,3,14
Cc1ccc(NC(=O)c2ccc(S(=O)(=O)NCc3ccco3)cc2)nc1,?,7,6.6,-31,2,9,9

# Pulled one by one from the list above (four):
molecule,Bead autofluor,BJeLR lethal,Sa RN4220 lethal,PrP 5UTR inh,ugtP null kill,Mtb hypoxia rep,Mtb hypoxia rep growth
CCOC(=O)Cn1cc(C=NN2C(=O)C3C4C=CC(C4)C3C2=O)c2ccccc21 (stereo not drawn),·,·,1.8,·,2,3,10
Cc1nc2scc(-c3ccc(C(C)(C)C)cc3)c2c(=O)n1N,2572,-7,13,-35,14,9,0
COc1ccc(-c2csc3ncnc(N4CCN(c5ccccc5O)CC4)c23)cc1,4651,-9,-2.3,-14,-8,0,-2
COc1cc2c(c(OC)c1OC)C(=O)CC2,6043,5,5.9,-2,1,7,-4

# Following part
molecule,Bead autofluor,BJeLR lethal,Sa RN4220 lethal,PrP 5UTR inh,ugtP null kill,Mtb hypoxia rep,Mtb hypoxia rep growth
CCN(CC)CCCn1c2c(c(SCC(=O)Nc3cc(C)on3)nc1=O)CCC2,?,0,·,-2,·,·,·
CCOc1ccc(NC(=O)CSc2nc3ccccc3c(=O)n2CCCC(=O)N2CCCC2)cc1,8625,10,3.6,-29,-7,13,5
Cc1[nH]nc(SCC(=O)NCC(C)C)c1[N+](=O)[O-],4333,5,0.3,-30,1,12,8
Cc1c(C=O)c(C=O)c(C)n1Cc1ccccc1,4898,0,1.7,5,-5,·,·
Brc1ccc(C2=Nn3cnnc3SC2)cc1,3527,1,4.0,-6,5,-4,-15
COC(=O)c1sccc1NC(=O)CSc1ccccc1NS(=O)(=O)c1cc(Cl)ccc1Cl,3631,-1,13,-16,-8,-2,-14
COc1ccc(CCNC(=O)C23CCC(C)(C(=O)O2)C3(C)C)cc1OC (stereo not drawn),6312,-2,2.9,-19,16,2,2
Cc1cc(NS(=O)(=O)c2ccc(NC(=O)/C=C/c3c(F)cccc3Cl)cc2)no1,6026,5,0.5,-13,-6,13,15
O=C1CN(C(=O)COC(=O)CNS(=O)(=O)c2ccccc2)c2ccccc2N1,3135,-1,3.8,-17,5,11,2
CCNC(=S)N1CCC(C(=O)c2ccc(Cl)cc2)CC1,4196,0,1.2,2,6,19,13
CC(C(=O)NCC1CCCO1)N1C(=O)C2C3CC(C(Br)C3Br)C2C1=O (stereo not drawn),3984,-11,4.0,-26,9,3,-2
CCN(CC)S(=O)(=O)c1cccc(-c2nnc(SCC#N)n2Cc2ccccc2)c1,8817,-4,6.2,-13,-1,6,7
S=C(c1ccc(N2CCCC2)c(Br)c1)N1CCCCC1,3557,0,-5.0,-27,18,15,8
CN(C)C(=O)Oc1ccc(-c2cn3cc(Cl)ccc3n2)cc1,7453,24,9.3,10,4,-4,-5
Cc1ccc(OCC(=O)c2c(N)n(C)c(=O)n(C)c2=O)c([N+](=O)[O-])n1,7863,·,4.4,-27,2,0,-1
Cc1cc(=O)[nH]c(NN=Cc2cccc([N+](=O)[O-])c2)n1,·,·,4.0,·,5,0,3
Cc1cc(COc2ccccc2O)on1,3228,2,3.2,-12,5,1,10
Cn1nc(C(=O)N2CCN(S(=O)(=O)c3ccccc3)CC2)c2ccccc2c1=O,4632,-1,-2.6,-18,-1,5,14
Cc1nc(N2CCN(Cc3ccccc3)CC2)[nH]c(=O)c1C,4489,2,8.1,-16,-1,10,4
Cc1ccc(S(=O)(=O)NN=Cc2cc3c(cc2[N+](=O)[O-])OCO3)cc1,·,·,9.2,·,8,3,-5
O=C(CN1CCN(S(=O)(=O)c2ccc(Br)cc2)CC1)N/N=C/c1cc([N+](=O)[O-])ccc1Cl,2126,-13,·,-11,·,·,·
CC(C)(C)c1ccc(-n2ncc3c2CCCC3NC(=O)CN2CCOC2=O)cc1 (stereo not drawn),6065,10,1.2,-22,-8,1,-1
COc1ccc(NC(=S)N2CCN(Cc3cccc(F)c3)CC2)c(OC)c1,3907,-9,2.0,-46,6,23,9
COc1ccc(C(=O)NC2CCN(C(=S)Nc3cc(C)ccc3C)CC2)cc1,6586,0,3.8,-16,13,17,4
Nc1nc(Nc2cccc(Cl)c2)n[nH]1,5218,-6,7.6,-14,15,2,-2
COc1c(F)c(F)c(C(=O)Nc2ccc(NC(=O)Cc3ccccc3)cc2)c(F)c1F,4368,1,1.0,-25,6,6,4
COc1ccc(NC(=O)c2cc(OC)c(OC)c(OC)c2)cn1,9776,7,-1.7,-17,-5,-11,6
Cc1ccc(S(=O)(=O)N(C)C)cc1NC(=O)COC(=O)c1ccc2c(c1)NC(=O)CS2,5693,17,1.9,-15,5,-7,1
C#Cc1ccc([C@@H]2C=C(C(=O)NCc3ccccc3)O[C@H](OCc3ccc(CO)cc3)C2)cc1,3712,-12,·,-16,·,·,·
CCOc1c(Br)cc(C2NC(=O)CCC2[N+](=O)[O-])cc1OC (stereo not drawn),3458,-12,1.6,-24,0,-11,-7
CC(C)Oc1ccc(/C(O)=C2/C(=O)C(=O)N(CCN3CCNCC3)C2c2cccc([N+](=O)[O-])c2)cc1 (stereo not drawn),3568,4,-2.5,18,5,6,17
CCOc1ccccc1C(=O)N[C@H](C(=O)OCc1csc(CC(=O)Nc2ccc(C)cc2)n1)C(C)C,3619,·,-3.3,17,-8,10,4

# Record cards (already shown):
# O=C(O)C1=CCCN(CCON=C(c2ccccc2)c2ccccc2)C1 is listed as Bead autofluor: 6058; BJeLR lethal: ·; Sa RN4220 lethal: 10; PrP 5UTR inh: -13; ugtP null kill: 1; Mtb hypoxia rep: 13; Mtb hypoxia rep growth: 2
# COc1ccc(Cc2nc3ccccc3n2CC(=O)N/N=C/c2ccccc2)cc1OC is listed as Bead autofluor: 2437; BJeLR lethal: 5; Sa RN4220 lethal: ·; PrP 5UTR inh: -8; ugtP null kill: ·; Mtb hypoxia rep: ·; Mtb hypoxia rep growth: ·

# Compounds as they come; overall some 4% were active at least once.
